Assay outcomes: PubChem, Center for Chemical Genomics, University of Michigan
HIV TAR-Tat – HIV-1 TAR-Tat binding disruption | HIV-1 TAR RNA, Tat peptide displacement FRET; hits give high values | z-score (no concentration beside the values) | hit rate 0.6% among 100,000 | AID 1259389;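 note: score is relative to mean and SD of negative controls; some compounds called inactive have numbers as strong as hits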
CDC25B CDK2 inh – human CDC25B-CDK2/CyclinA binding inhibition; P30305+P24941; z-score (test concentration not listed); hit rate 0.72% among 94,000; HTRF CDC25B-CDK2/CyclinA binding, anti-His/anti-Flag; hits give high values;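 note: score is relative to mean and SD of negative controls; strong numbers were not always called active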
Numbers without * were called inactive; x = no result given.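 Rule for the calls: active = z-score from 3 up in half or more of its runs; inactive = the rest.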 Compounds as they come; overall some 0.9% were active at least once.

Compound,HIV TAR-Tat,CDC25B CDK2 inh
Cn1c(=O)c2c(SCC(=O)Nc3ccc(C(F)(F)F)cc3)nc(-c3ccco3)nc2n(C)c1=O,x,-1.07
CCCOC(=O)C1=C(C)NC2=C(C(=O)CC(c3cccs3)C2)C1c1coc2ccc(C)cc2c1=O (configuration not stated),-0.12,0.1
CCn1cc(CCCC(=O)NCCCN2C(C)CCCC2C)c2ccccc21 (configuration not stated),1.83,x
O=C(/C=C/c1cccc([N+](=O)[O-])c1)NCCSCc1ccccc1Cl,x,1.15
CC1(C)Cc2ccccc2-c2[nH]c(=O)n(C3CCCC3)c(=O)c21,2.42,-2.87
CC(C)CC1NC(=O)C(CCCN)NC(=O)C(C(C)C)NC(=O)C2CCCN2C(=O)C(Cc2ccccc2)NC(=O)C(CC(C)C)NC(=O)C(CCCN)NC(=O)C(C(C)C)NC(=O)C2CCCN2C(=O)C(Cc2ccccc2)NC1=O (configuration not stated),1.36,x
COc1ccccc1OCCOc1ccc(Cl)cc1/C=C1/SC(=S)N(C)C1=O,x,-1.42
CCOC(=O)C1=C(C)Nc2nc(SCC)nn2C1c1ccc(F)cc1 (configuration not stated),1.63,-1.55
O=C(Nc1cccc(Cl)c1)C1CCCN1S(=O)(=O)c1ccc(-c2ccc(=O)[nH]n2)s1 (configuration not stated),1.03,x
CN1C(C(=O)c2ccccc2)=C(OC(=O)Cc2ccccc2)c2ccccc2S1(=O)=O,x,-1.88
CSc1ccc(CCNC(=O)c2cnc3sccn3c2=O)cc1,1.08,x
O=C(N1CCc2ccccc21)N1c2ccccc2Sc2ccccc21,-0.02,-2.86
CCOC(=O)c1nnn(-c2nonc2N)c1CSc1nc2ccccc2o1,x,-1.37
O=S1(=O)C[C@H](NCCc2ccccc2)[C@@H](S(=O)(=O)c2cccs2)C1,-0.65,-1.14
O=C1c2ccccc2C(=O)N1C1CCCCC1,x,-0.05
COc1ccc(C2C(C(=O)OCc3ccccc3)=C(C)Nc3nnnn32)cc1OC (configuration not stated),0.48,-0.77
CC1=C(c2ccc(C(C)C)cc2)S(=O)(=O)N=C1N1CCC(C(=O)N2CCC(C)CC2)CC1,-0.01,x
COc1ccc(NC(=O)CC(C)S(=O)(=O)c2ccc3c(c2)CCN3C(=O)C2CC2)c(OC)c1 (configuration not stated),-0.4,x
COCCOc1cc2ncnc(Cl)c2cc1OCCOC,x,-0.83
COc1ccc(OS(=O)(=O)c2c(C)noc2C)cc1,x,-1.46

Among those listed so far, these have a thiophene ring, fused or not.
Compound,HIV TAR-Tat,CDC25B CDK2 inh
CCCOC(=O)C1=C(C)NC2=C(C(=O)CC(c3cccs3)C2)C1c1coc2ccc(C)cc2c1=O (configuration not stated),-0.12,0.1
O=C(Nc1cccc(Cl)c1)C1CCCN1S(=O)(=O)c1ccc(-c2ccc(=O)[nH]n2)s1 (configuration not stated),1.03,x
O=S1(=O)C[C@H](NCCc2ccccc2)[C@@H](S(=O)(=O)c2cccs2)C1,-0.65,-1.14

Continuation.
Compound,HIV TAR-Tat,CDC25B CDK2 inh
CC1CCCCC1NC(=O)Cn1ncc2c([nH]c3ccccc32)c1=O (configuration not stated),1.92,x
c1ccc(C(Cc2nc(-c3ccccn3)no2)c2ccccc2)cc1,x,2.56
Cc1ccc(-c2nc(C3CCCCC3)no2)cc1,1.5,-1.14
CC(=O)Nc1ccc(C2Nc3cc(C)c(C)cc3NC3=C2C(=O)CC(C)(C)C3)cc1 (configuration not stated),1.62,-0.75
O=C(Nc1cccnc1)c1cc(Cl)sc1Cl,x,-0.47
CCOc1ccc(N2C(=O)N(c3ccc(F)cc3)C3CS(=O)(=O)CC32)cc1 (configuration not stated),1.38,-1.23
O=S(=O)(c1cccs1)N(Cc1ccccc1)Cc1ccccc1,1.48,1.17
O=S(=O)(NCC1CCN(Cc2ccc(Cl)cc2)CC1)c1cnc[nH]1,0.93,x
O=S(=O)(Nc1cccc(-c2cn3ccccc3n2)c1)c1ccc(-c2ccccc2)cc1,1.62,-1.27
CN(C)c1ncc(C(=O)NCc2ccc3c(c2)OCO3)cn1,1.49,x

Laid out differently: results already given
Every second line gives: HIV TAR-Tat	CDC25B CDK2 inh
> CN1C(C(=O)c2ccccc2)=C(OC(=O)Cc2ccccc2)c2ccccc2S1(=O)=O
  x	-1.88
> CSc1ccc(CCNC(=O)c2cnc3sccn3c2=O)cc1
  1.08	x
> O=C(N1CCc2ccccc21)N1c2ccccc2Sc2ccccc21
  -0.02	-2.86
> CCOC(=O)c1nnn(-c2nonc2N)c1CSc1nc2ccccc2o1
  x	-1.37
> O=S1(=O)C[C@H](NCCc2ccccc2)[C@@H](S(=O)(=O)c2cccs2)C1
  -0.65	-1.14

Additional entries.
Compound,HIV TAR-Tat,CDC25B CDK2 inh
Cc1cc2n(n1)CCC(=O)N2CC(=O)NCCc1cccs1,-0.38,x
CCOC(=O)C1CCCN(C(=O)NC2(C(F)(F)F)Oc3ccccc3O2)C1 (configuration not stated),x,-0.6
CCOC(=O)C1C(=O)CC(C)(O)C(C(=O)OCC)C1c1ccc(Cl)cc1 (configuration not stated),0.4,-0.56
Cc1nc(-c2cccs2)c(CC(=O)N2CCc3ccccc32)s1,-1.02,-2.61
CC(C)CCN1C(=O)c2cc3occc3n2CC1(C)C(=O)NC1CCCCC1 (configuration not stated),1.79,x
O=C1c2cccnc2C(=O)N1Cc1ccc(S(=O)(=O)N2CCC(Cc3ccccc3)CC2)s1,-1.13,x
c1ccc2c(c1)OCC(CSc1nnc3c(n1)[nH]c1ccccc13)O2 (configuration not stated),-0.74,-0.32
CC(C)(C)n1nc2c(c1NC(=O)COc1ccc(Cl)cc1)CS(=O)(=O)C2,0.91,x
CCn1c(C(O)c2ccccc2)nc2ccccc21 (configuration not stated),2.34,-2.42
COc1ccc(C(=O)/C(C#N)=C/NC2CCN(Cc3ccccc3)CC2)cc1,x,-1.88
c1ccc(CN2CCCC(c3ccccc3)C2)cc1 (configuration not stated),x,-0.53
O=C(OCC1OC(n2ccc(=O)[nH]c2=O)C(O)C1O)c1ccccc1 (configuration not stated),x,0.21
Cc1cccc(NC(=O)NC2(C(F)(F)F)Oc3ccccc3O2)n1,x,-0.53
Cc1ccc(C(=O)Nc2nnc3n2CCCS3)cc1C,1.06,x
Cc1ccc2nc(N3CCc4ccccc43)c3nncn3c2c1,-0.07,2.13
COc1ccc(C(=O)N=S2CCN(C(=O)c3ccc(Cl)cc3)CC2)cc1,x,-2.83
O=C(NCc1ccco1)c1cc2n(n1)C(C(F)(F)F)CC(c1ccc(Cl)cc1)N2 (configuration not stated),0.68,-0.42
Cc1ccc(C)c(CNC(=O)c2cnc3sc4c(n3c2=O)CCCC4)c1,1.11,x
O=C1CCCN2N=C(SCC(=O)N3CCCC3)SC2=N1,x,-1.67
COc1cccc(CNCc2noc3ccccc23)c1,1.77,x
CCOC(=O)C1=C(C)Nc2nc(SC)nn2C1c1ccc(Br)cc1 (configuration not stated),0.82,-1.48
O=C(COCc1cc(-c2ccco2)on1)N1CCN(c2ccc(F)cc2)CC1,-0.64,x
NC(=O)CSc1nc(-c2ccccc2)[nH]c1S(=O)(=O)c1ccccc1,1.02,-2.01
COc1ccc(CC2C(=O)OC(C)(C)OC2=O)c(Cl)c1OC,x,-3.45
CCc1nc2ccccc2n1Cc1ccccc1Cl,0.77,-0.41
CCc1ccc(-c2cc(C)no2)cc1S(=O)(=O)NCCc1ccccc1,2.21,x
CCCn1c(=O)c2c(nc3n2CCN3c2ccc(C)cc2)n(C)c1=O,2.41,x
CS(=O)(=O)c1ccc(-c2cccc(NC(=O)C3c4ccccc4Oc4ccccc43)c2)nn1,0.38,x
O=C(CN1C(=O)c2cccnc2Oc2ccc(Cl)cc21)N1CCN(C2CCCCC2)CC1,2.17,x
Nc1ccc(C(=O)NCC(=O)O)cc1,0.11,x
CC(C)Cn1cc(NC(=O)Nc2nccs2)c2ccccc2c1=O,1.52,x
Cc1[nH]c2ccc(C(=O)OCCN(C)C)cc2c1C,0.66,-2.49
O=C(/C=C/c1cccc([N+](=O)[O-])c1)NCCSc1ccccc1,x,1.55
O=C(NCCCc1nc2ccccc2[nH]1)c1[nH]nc2c1CCc1ccccc1-2,0.27,x
O=C(O)c1ccc(CN2CC(=O)N3CCCC3C2=O)cc1 (configuration not stated),0.84,2.73
C=CCSc1nc(=O)c2c(n1C)NC(=O)CC2c1ccc(OCCCC)cc1 (configuration not stated),2.06,-1.38
CC(c1ccccc1)n1cc2c(c1-c1ccc(Br)cc1)c(=O)n(C)c(=O)n2C (configuration not stated),0.24,0.23
Cc1nc(C(F)(F)F)ccc1C(=O)NCCNC(=O)OC(C)(C)C,x,-0.96
Cc1nn(Cc2cccc(F)c2)c(=O)c2noc(C)c12,-1.1,x
COc1ccc(C2CC(c3ccc(OC)cc3)n3nnnc3N2)cc1 (configuration not stated),1.76,x
CC(=O)N1c2ccc(S(=O)(=O)N(C)CC(=O)NC3CCCC3)cc2CC1C (configuration not stated),-0.45,x
COc1ccc(C2CC(c3cccs3)Nc3nnnn32)cc1 (configuration not stated),1.51,x
COc1cc(-c2nc3nc[nH]n3c2Nc2ccc(C(C)C)cc2)ccc1O,x,-0.36
Cc1ccc(C(=O)Nc2nnc(SCc3cc(=O)n4oc(C)cc4n3)s2)cc1,1.51,x
CCCCC(O)(CCN1CCOCC1)c1ccc(Cl)cc1 (configuration not stated),2.23,-1.2
Cn1ncc2c(NCCO)ncnc21,2.09,-2.02
Cc1ccc2oc(C(=O)Nc3c(C(=O)c4ccccc4)oc4ccccc34)cc(=O)c2c1,-0.87,-1.6
CC(=O)N(C(C)=O)c1ncc2c([nH]c3ccccc32)c1C#N,x,-1
CCOC(=O)CSc1nnc(CSc2nc(C)cc(C)n2)n1-c1ccc(Cl)cc1,0.57,-0.99
Cc1cc(NC(=O)CSc2nc3ccc(Br)cc3c3nc4ccccc4n23)no1,1.01,x

(further entries)
Compound,HIV TAR-Tat,CDC25B CDK2 inh
CC(NS(=O)(=O)c1ccc(Cl)cc1)C(c1cccs1)N1CCN(c2ccc(F)cc2)CC1 (configuration not stated),x,-0.49
CCOCCCNS(=O)(=O)c1cc2c(cc1C)NC(=O)CO2,1.08,x
O=C(Nc1ccc(F)cc1F)C1CCCN(c2ncnc3c2nc2n3CCCCC2)C1 (configuration not stated),0.81,x
CN1CCN(c2nc3cc(C(F)(F)F)ccc3n3cccc23)CC1,0.53,-2.17
Cc1noc(/C=C/N(C)C)c1S(=O)(=O)N1CCCC(C(=O)NC2CCCCCC2)C1 (configuration not stated),x,-0.89
CCN(C(=O)CSc1nc(-c2ccco2)nc2cc(=O)[nH]n12)c1ccccc1,2.23,x
COc1ccc(-c2csc3ncnc(NCCN(C)C4CCCCC4)c23)cc1,1.74,x
Cn1c(-c2ccc(Br)cc2)cnc1NCc1cccc(F)c1,1.04,-1.8
CN(C)C(=O)c1ccc2c(c1)N(CC(=O)Nc1nccs1)C(=O)CO2,0.72,x
Cc1cccc(N2CCN(S(=O)(=O)c3c(C)nc4scc(C)n4c3=O)CC2)c1C,1.82,-0.95
CCN(CC)C(=O)CSc1cn(CC(=O)N2CCC(C)CC2)c2ccccc12,0.98,x
CN(C)C1CS(=O)(=O)CC1N(C)C (configuration not stated),0.47,1.64
O=C(NC1CCCC1)c1ccc(NC(=O)N2CCSc3ncccc32)cc1,-0.72,x
CN(C1CCS(=O)(=O)C1)S(=O)C12CC3CC(CC(C3)C1)C2 (configuration not stated),x,0.32
Cc1cc2c3c([nH]c2cc1S(=O)(=O)Nc1ccc(Cl)cc1)CC(C)(C)CC3=O,0.65,x
O=C(NCc1ccco1)C1CCCN(c2cnc3ccccc3n2)C1 (configuration not stated),0.88,x
Cc1cc(-c2ccc(=O)[nH]n2)cc(S(=O)(=O)N(C)Cc2ccccc2)c1C,1.77,x
OC1(C2CCN3Cc4ccccc4N=C23)CCCCC1 (configuration not stated),0.41,x
CCc1ccc(N2C(=O)N(Cc3cc(C)ccc3C)C3CS(=O)(=O)CC32)cc1 (configuration not stated),-1.29,x
COc1ccc(N=C2NC(=O)CC(C(=O)Nc3ccc(Br)cc3)S2)cc1 (configuration not stated),3.45,0.99

Among those listed so far, these contain a tert-butyl group.
Compound,HIV TAR-Tat,CDC25B CDK2 inh
CC(C)(C)n1nc2c(c1NC(=O)COc1ccc(Cl)cc1)CS(=O)(=O)C2,0.91,x
Cc1nc(C(F)(F)F)ccc1C(=O)NCCNC(=O)OC(C)(C)C,x,-0.96

New compounds follow.
Compound,HIV TAR-Tat,CDC25B CDK2 inh
COC(=O)C1=C(C)NC(C)=C(C(=O)OC)C1c1ccc(C(C)(C)C)cc1,x,-2.01
CC(=O)OC[C@@H](OC(C)=O)[C@@H](OC(C)=O)[C@@H](OC(C)=O)C(N)=O,x,-1.2
COc1ccc(-c2noc(CSc3nnc(C)n3-c3ccc(OC)cc3)n2)cc1,0.75,-1.14
Cc1cc(C)c(C)c(C(=O)CC2(O)C(=O)Nc3ccccc32)c1C (configuration not stated),2.28,x
Cc1cccc2c1NC1(CCCCCC1)CC2C (configuration not stated),x,-0.54
CC1=C(c2ccccc2)S(=O)(=O)N=C1Nc1ccccc1Cl,-2.33,-1.98
Cc1c(-c2nsc(NC(=O)c3cccs3)n2)nnn1-c1ccc(Br)cc1,0.35,x
CC(C)C(NS(=O)(=O)c1cccs1)C(=O)NCCC1=CCCCC1 (configuration not stated),0.25,x
CC1Cn2c(C(=O)O)cc3cccc(c32)S1 (configuration not stated),-0.3,1.04
O=C(c1ccc(S(=O)(=O)Nc2ccc3c(c2)OCO3)s1)N1CCCC1,0.42,x
COC(=O)c1cc([N+](=O)[O-])ccc1N1CCOCC1,x,-1.33
